From PubChem
GIV Gai3 FP = inhibitors of GIV GBA-motif binding to rat Galpha-i3 | P08753 | Galpha-i3/FITC-GIV peptide fluorescence polarization, 90 min; stronger effect = lower value; scaled: aluminum fluoride 0%, vehicle 100% | percent of control (FP), % (no concentration beside the values) | 210,000 tested, 0.42% active | AID 1224905;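 active means replicate mean at 85% of control or lower, very high polarization wells dropped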;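 further: wells of about 15 µL received 100 nL stock; the first replicate is given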
Target sequence (P08753 whole entry, looked up): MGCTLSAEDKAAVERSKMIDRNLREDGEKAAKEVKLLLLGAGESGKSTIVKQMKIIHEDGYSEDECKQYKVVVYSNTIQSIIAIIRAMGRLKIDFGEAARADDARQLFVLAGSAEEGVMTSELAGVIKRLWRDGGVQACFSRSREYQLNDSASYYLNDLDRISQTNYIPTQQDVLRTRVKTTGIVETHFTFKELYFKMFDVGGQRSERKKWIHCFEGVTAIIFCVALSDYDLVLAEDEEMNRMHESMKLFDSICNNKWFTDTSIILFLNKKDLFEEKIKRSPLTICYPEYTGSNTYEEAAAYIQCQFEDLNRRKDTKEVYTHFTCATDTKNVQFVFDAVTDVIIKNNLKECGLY
HCMV UL50-53 inh = inhibitors of HCMV UL50-UL53 nuclear egress complex interaction; HTRF UL50-UL53 interaction, normalized percent inhibition; inhibition, % (no concentration beside the values); 190,000 tested, 0.15% active;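 active means both replicates at 50% or more, plus weaker picks with an unusually low signal ratio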;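 further: stock transfer was 100 nL into about 20 µL; 0% = negative control wells and 100% = wells with untagged competitor protein; inactives centre near -12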
Sa growth 42C = blocks Staphylococcus aureus growth | 170,000 tested, 0.53% active | S. aureus RN4220 growth, OD600, 20 h, 42 °C; stronger effect = lower value | AID 720641 | relative growth, % (test concentration not listed);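 active means growth at 42 °C up to 50% and 20 or more points under that at 30 °C, or under 10% at both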;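 further: 300 nL library stock went into each well; scaled to the means of positive and negative controls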
Sa growth 42C second temp = second read-out of Sa growth 42C, no call of its own (marks repeat the call); relative growth, %; measured here: growth at 30 °C;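 optical density after 20 h as mean of two plates; 100% = untreated growth and lower means inhibition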
The depositor's hits bear a star; . = no result given; & = joins results of further samples. This is a random part of the collection, and some 0.79% of all compounds hit somewhere here.

Short forms – A = GIV Gai3 FP; B = HCMV UL50-53 inh; C = Sa growth 42C; D = Sa growth 42C second temp
1	Cc1c(C#N)c(NC(=O)CN2CCc3ccccc3C2)n(Cc2ccco2)c1C
  A = . | B = -18 | C = 82 | D = 84
2	O=C(O)c1cccc(NNC(=O)c2ccc3c(c2)OCCO3)c1
  A = . | B = 3 | C = 93 | D = 98
3	CCn1c(C)c(C)c2cc(C(=O)NCCN3CCN(C)CC3)ccc21
  A = 129 | B = -10 | C = 110 | D = 101
4	CC1SCC(NC(=O)Nc2ccc(Cl)cc2)CS1 (stereo unspecified)
  A = 106 | B = -14 | C = 66 | D = 60
5	O=C(CCN1C(=O)COc2ccccc21)NC1CCCCCC1
  A = 108 | B = . | C = 110 | D = 94
6	CCC1(COC(NC(=O)c2ccc(Cl)cc2Cl)(C(F)(F)F)C(F)(F)F)COC1
  A = 106 | B = . | C = 120 | D = 84
7	CCc1c(C)nc2cc(-c3ccc(OC)c(OC)c3)nn2c1NCC(C)(C)CN(C)C
  A = 110 | B = -12 | C = 96 | D = 84
8	COCC(=O)N(C)C1(c2nnnn2CCOC(=O)Nc2ccc(Cl)cc2)CCCC1
  A = 100 | B = -3 | C = 110 | D = 88
9	CC(=O)c1cccc(NS(=O)(=O)c2cc(-c3cnc(C4CC4)o3)ccc2C)c1
  A = 104 | B = . | C = 115 | D = 102
10	Cc1cc(C(=O)NC(C)c2ccccc2)c(C)o1 (stereo unspecified)
  A = . | B = -28 | C = 76 | D = 82
11	Cc1onc(-c2ccccc2)c1-c1ccnc(-c2ccc(Cl)cc2)n1
  A = 97 | B = -2 | C = 94 | D = 100
12	CCOc1cc(-c2nn3c(-c4ccoc4C)nnc3s2)cc(OCC)c1OCC
  A = 102 | B = . | C = 109 | D = 78
13	CCCNC(=O)c1ccc2c(c1)nc1n2CCCCC1
  A = 101 | B = . | C = 88 | D = 90
14	O=C1S/C(=C\C=C\c2ccco2)C(=O)N1CCCc1ccccc1
  A = 109 | B = 0 | C = 104 | D = 103
15	O=C1C=C(N2CCOCC2)C(=O)N1c1ccc(Cl)cc1
  A = . | B = 5 | C = 105 | D = 93
16	O=C(CN1C(=O)c2ccccc2S1(=O)=O)Nc1ccccc1C(=O)NCC1CCCO1 (stereo unspecified)
  A = 104 | B = -17 | C = . | D = .
17	NC1(C(=O)O)CCCCC1
  A = 108 | B = -13&-23 | C = 86 | D = 89
18	O=C(NO)c1cccc2c1-c1ccccc1/C2=N/O
  A = . | B = -20 | C = 90 | D = 99
19	COC(=O)Cc1c(C)c2cc(Cl)c(O)cc2oc1=O
  A = 111 | B = -33 | C = 92 | D = 84
20	CCOC(=O)CNC(=O)CSc1nc2nc[nH]c2c(=O)[nH]1
  A = 102 | B = -6 | C = . | D = .
21	COC(OC)c1ccc2c(N)c(C(=O)c3ccc(Cl)cc3)sc2n1
  A = 102 | B = 5 | C = 98 | D = 92
22	Nc1ccc(OC(F)F)cc1
  A = . | B = 2 | C = 96 | D = 94
23	NNC(=O)c1cc(C23CC4CC(CC(C4)C2)C3)[nH]n1
  A = . | B = -11 | C = 110 | D = 88
24	O=C(Nc1nccs1)c1cccc(N2C(=O)C3C4C=CC(C4)C3C2=O)c1 (stereo unspecified)
  A = 108 | B = 27 | C = 112 | D = 99
25	COc1cccc(C2=Nc3ccccc3C2=O)c1
  A = . | B = -28 | C = 110 | D = 87

Next section.
Short forms – A = GIV Gai3 FP; B = HCMV UL50-53 inh; C = Sa growth 42C; D = Sa growth 42C second temp
26	O=C(c1cnc2sc3c(n2c1=O)CCCCC3)N1CCCC1
  A = 104 | B = 4 | C = . | D = .
27	CS(=O)(=O)CS(=O)(=O)NCc1ccc(Cl)cc1
  A = 97 | B = 0 | C = 105 | D = 103
28	CCNc1nnc(-c2ccc(C)cc2)s1
  A = . | B = -7 | C = 93 | D = 81
29	N#CCN(CC#N)C(=O)Cc1coc2ccc3ccccc3c12
  A = 99 | B = -30 | C = 101 | D = 89
30	O/N=C1/c2ccccc2CCC1Cn1ccnc1 (stereo unspecified)
  A = 101 | B = -6 | C = 84 | D = 80
31	CCOC(=O)c1c(-c2ccccc2)oc2cc(Br)c(OCc3ccccc3)cc12
  A = 105 | B = -27 | C = 104 | D = 93
32	CCCCc1nnc2sc(-c3cnccn3)nn12
  A = 108 | B = -34 | C = . | D = .
33	O=C(NCCCN1CCC(N2CCCCC2)CC1)c1ccc2c(c1)NC(=O)C1CCCCN21 (stereo unspecified)
  A = 106 | B = -20 | C = . | D = .
34	O=C(c1nc(-c2ccccc2)n(-c2ccc(F)cc2)n1)N1CCCC1
  A = 103 | B = -6 | C = . | D = .
35	CN1C(=O)C(C#N)=C(c2ccccc2)/C(=C/c2ccc(-c3ccc(F)cc3)o2)C1=O
  A = . | B = 4 | C = 95 | D = 94
36	OC(COc1ccc(F)cc1)Cn1c(Cc2ccccc2)nc2ccccc21 (stereo unspecified)
  A = 103 | B = -30 | C = . | D = .
37	Cc1cc(-c2onc(C)c2C(=O)Sc2ccccc2)no1
  A = 103 | B = -33 | C = 92 | D = 87
38	Cc1ccc(C)c(Cn2c(=O)c3c(nc4n3CCN4c3ccc(F)cc3)n(C)c2=O)c1
  A = 108 | B = . | C = 99 | D = 84
39	CCCCN(C)C(=O)CN1C(=O)CCCc2ccccc21
  A = 111 | B = -12 | C = . | D = .
40	O=C(NC1CC1)c1ccc(CN2C(=O)CCn3nc(-c4ccccc4)cc32)cc1
  A = 104 | B = -41 | C = 102 | D = 82
41	Cc1ccc(C)c(OCC(=O)Nc2ccc(S(=O)(=O)Nc3onc(C)c3C)cc2)c1C
  A = 107 | B = -1 | C = 80 | D = 86
42	COc1ccc(NC(=O)c2ccco2)cc1OC
  A = . | B = -12 | C = 109 | D = 85
43	Cc1cc(C(=O)COn2nnc3ccc(S(C)(=O)=O)cc32)c(C)n1C
  A = . | B = -27 | C = 91 | D = 89
44	Cc1ccc(OCC(O)CN2C(C)CCCC2C)c(C)c1 (stereo unspecified)
  A = 105 | B = . | C = 107 | D = 84
45	CC(=O)N1c2ccc(S(=O)(=O)N3CCCCCC3)cc2CC1C(=O)NCc1cccc(C)c1 (stereo unspecified)
  A = 107 | B = . | C = 124 | D = 88
46	FC(F)(F)Oc1ccc(N=Cc2ccc(Cl)cc2)cc1
  A = 106 | B = -8 | C = 99 | D = 86
47	Cc1nc(Nc2ccc(Cl)cc2)c2c(C)noc2n1
  A = 101 | B = -23 | C = . | D = .
48	N#CCc1nc2n(n1)Cc1ccccc1-2
  A = . | B = 10 | C = 100 | D = 96
49	CCc1ccccc1NC(=O)CSc1nnc2ccc3ccccc3n12
  A = 99 | B = -29 | C = 99 | D = 80
50	Cc1cc(NC(=O)Nc2ccc(Cl)cc2)n(-c2ccccc2)n1
  A = 103 | B = -25 | C = 85 | D = 83

Some of these compounds in order of their number in Sa growth 42C, low to high:
| cpd | compound | Sa growth 42C |
| --- | --- | --- |
| 43 | Cc1cc(C(=O)COn2nnc3ccc(S(C)(=O)=O)cc32)c(C)n1C | 91 |
| 49 | CCc1ccccc1NC(=O)CSc1nnc2ccc3ccccc3n12 | 99 |
| 42 | COc1ccc(NC(=O)c2ccco2)cc1OC | 109 |

Next structures.
Short forms – A = GIV Gai3 FP; B = HCMV UL50-53 inh; C = Sa growth 42C; D = Sa growth 42C second temp
51	N#CCCN(C1CCCCC1)S(=O)(=O)c1ccc(Br)cc1
  A = 98 | B = -8 | C = 97 | D = 85
52	COc1cccc(Nc2c(C(=O)N3CCOCC3)cnc3ccccc23)c1
  A = 103 | B = -9 | C = . | D = .
53	Nc1ccc(-c2ccccc2C(=O)O)cc1
  A = 103 | B = -8 | C = 115 | D = 97
54	O=C(COc1nsnc1N1CCOCC1)N1CCOCC1
  A = 105 | B = 4 | C = 102 | D = 90
55	CCOc1cc(/C=C(\C#N)C(=O)NCc2ccco2)ccc1O
  A = . | B = -44 | C = 92 | D = 71
56	CC1=C(C#N)C(C(F)(F)F)(C(F)(F)F)N=C(Cc2ccccc2)N1
  A = 104 | B = . | C = 86 | D = 65
57	CCOC(=O)c1ccc(NC(=O)CN2N=C(c3ccc(OC)cc3)CCC2=O)cc1
  A = 106 | B = -23 | C = 94 | D = 87
58	COc1ccc(-c2noc(CN3CCC(C(=O)NC4CCCCC4)CC3)n2)cc1OC
  A = 111 | B = -5 | C = . | D = .
59	CCCCC1(O)CC(C)(C)N([O])C(C)(C)C1
  A = 93 | B = -20 | C = 87 | D = 94
60	OC1(C(F)(F)F)CC(/C=C/c2ccc3c(c2)OCO3)=NN1 (stereo unspecified)
  A = 104 | B = . | C = 88 | D = 88
61	Cc1ccnc(NCc2cccc3ccccc23)c1
  A = 97 | B = -6 | C = 97 | D = 60
62	O=C(Nc1ccccc1)C(Cc1ccccc1)N1Cc2ccccc2C1=O (stereo unspecified)
  A = 106 | B = . | C = 133 | D = 87
63	O=C(c1ccc(NC(=O)N2CCCCc3ccccc32)cc1)N1CCN(c2ccccc2F)CC1
  A = 105 | B = -2 | C = . | D = .
64	Cc1ccc(C(=O)OC(C)C(=O)NC2CCCCC2)cc1S(=O)(=O)N1CCCCC1 (stereo unspecified)
  A = . | B = 2 | C = 104 | D = 88
65	COc1ccc(OC)c2c1CC(C)(C)NC2=O
  A = . | B = -7 | C = 88 | D = 85
66	CCOC(=O)c1sc(I)c(C#N)c1C
  A = . | B = -22 | C = 76 | D = 55
67	CC(C)CC(=O)Nc1nn2c(COc3ccccc3)nnc2s1
  A = 102 | B = 13 | C = 103 | D = 90
68	CCC[C@@H]1C[C@@H](C(=O)N[C@H]([C@H]2O[C@H](SC)[C@H](O)[C@@H](O)[C@H]2O)[C@H](C)O)N(C)C1
  A = . | B = -37 | C = 0.0* | D = -0.4*
69	COc1cc(OC)c(NC(=O)C2CCCN(c3ncnc4c3nc3n4CCCCC3)C2)cc1Cl (stereo unspecified)
  A = 106 | B = . | C = 67 | D = 82
70	CC1=CCC2C(=O)N(c3ccc(C4CCCCC4)cc3)C(=O)C2C1 (stereo unspecified)
  A = 105 | B = -36 | C = 89 | D = 90
71	CN(C)c1ccc(N/C=C/C(=O)c2ccco2)cc1
  A = 198 | B = -98 | C = 94 | D = 87
72	COc1ccc(-c2cc3c(=O)oc4ccccc4c3[nH]2)cc1
  A = 99 | B = -5 | C = 103 | D = 88
73	CCCNC(=O)CC1Oc2ccccc2NC1=O (stereo unspecified)
  A = 103 | B = . | C = 101 | D = 86
74	Cc1oc2ncn(C)c(=O)c2c1C(=O)NCCCN1CCCC(C)C1 (stereo unspecified)
  A = 99 | B = . | C = 78 | D = 92
75	O=C(Cc1ccc(S(=O)(=O)N2CCOCC2)s1)Nc1ccccc1N1CCOCC1
  A = . | B = -1 | C = 103 | D = 90

Further structures
Short forms – A = GIV Gai3 FP; B = HCMV UL50-53 inh; C = Sa growth 42C; D = Sa growth 42C second temp
76	Cc1ccc(CN2CCN(C3CCN(C(=O)C4CCCCC4)CC3)C(=O)C2=O)cc1
  A = 99 | B = -24 | C = . | D = .
77	CC(C)CCNC(=O)CCCn1c(=O)c2cccn2c2ccccc21
  A = 98 | B = -20 | C = 107 | D = 88
78	Cc1ccccc1C(=O)OCC1CCCN2CCCCC12 (stereo unspecified)
  A = . | B = -6 | C = 83 | D = 86
79	NS(=O)(=O)c1ccc(CCNC(=O)C2CCN(c3ncnc4c3nc3n4CCCCC3)CC2)cc1
  A = 105 | B = . | C = 94 | D = 99
80	O=C(/C=N/OCc1cc(=O)n2ccsc2n1)Nc1cccc(C(F)(F)F)c1
  A = . | B = -17 | C = 102 | D = 68
81	COc1ccccc1NC(=O)c1nnc2c(-c3ccccc3)c(C)nn2c1C
  A = 101 | B = -29 | C = 87 | D = 88
82	CSc1ccc(CCNC(=O)c2cc(C)nc3c2c(C)nn3-c2ccccc2)cc1
  A = 101 | B = . | C = 95 | D = 103
83	O=C(Nc1ccc(Cl)cc1)C1(S(=O)(=O)c2ccc(Cl)cc2)CC1
  A = 102 | B = . | C = 111 | D = 89
84	CCc1nnc(NC(=O)c2cc(S(=O)(=O)N3CCc4ccccc43)cn2C)s1
  A = 104 | B = . | C = 101 | D = 92
85	COc1cc2c(=O)c(S(=O)(=O)c3ccc(C)cc3)cn(Cc3cccc(C)c3)c2cc1OC
  A = 107 | B = 13 | C = 111 | D = 76
86	CCCN1C(=O)C(O)(C2CC(=O)CC(C)(C)O2)c2ccccc21 (stereo unspecified)
  A = 99 | B = . | C = 107 | D = 91
87	Cc1nc2ccc(S(=O)(=O)CCC(=O)Nc3ccc(C)c(C)c3)cc2s1
  A = 109 | B = . | C = 73 | D = 80
88	CC(=O)N1N=C2CCCCC2C1C(C)C (stereo unspecified)
  A = 99 | B = -22 | C = 87 | D = 82

Looked up by compound from the entries so far, five records:
Short forms – A = GIV Gai3 FP; B = HCMV UL50-53 inh; C = Sa growth 42C; D = Sa growth 42C second temp
88	CC(=O)N1N=C2CCCCC2C1C(C)C (stereo unspecified)
  A = 99 | B = -22 | C = 87 | D = 82
40	O=C(NC1CC1)c1ccc(CN2C(=O)CCn3nc(-c4ccccc4)cc32)cc1
  A = 104 | B = -41 | C = 102 | D = 82
54	O=C(COc1nsnc1N1CCOCC1)N1CCOCC1
  A = 105 | B = 4 | C = 102 | D = 90
7	CCc1c(C)nc2cc(-c3ccc(OC)c(OC)c3)nn2c1NCC(C)(C)CN(C)C
  A = 110 | B = -12 | C = 96 | D = 84
8	COCC(=O)N(C)C1(c2nnnn2CCOC(=O)Nc2ccc(Cl)cc2)CCCC1
  A = 100 | B = -3 | C = 110 | D = 88
